Screening results: PubChem BioAssay, Broad Institute
AF4-AF9 inh – inhibitors of human MLL-AF4/AF9 interaction; P42568; AlphaScreen, biotin-AF4 peptide binding to FLAG-AF9; inhibition, % at 10 µM; 350,000 tested, 0.47% active; AID 651704;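 active = every replicate reaching a set inhibition limit, whatever the replicate mean, cut at about 25% in these data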;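 note: 0% = plate neutral control median and 100% = total signal loss; the record names both 10 and 1 µM as test concentration; the first replicate is given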
Target sequence (P42568 whole entry, looked up): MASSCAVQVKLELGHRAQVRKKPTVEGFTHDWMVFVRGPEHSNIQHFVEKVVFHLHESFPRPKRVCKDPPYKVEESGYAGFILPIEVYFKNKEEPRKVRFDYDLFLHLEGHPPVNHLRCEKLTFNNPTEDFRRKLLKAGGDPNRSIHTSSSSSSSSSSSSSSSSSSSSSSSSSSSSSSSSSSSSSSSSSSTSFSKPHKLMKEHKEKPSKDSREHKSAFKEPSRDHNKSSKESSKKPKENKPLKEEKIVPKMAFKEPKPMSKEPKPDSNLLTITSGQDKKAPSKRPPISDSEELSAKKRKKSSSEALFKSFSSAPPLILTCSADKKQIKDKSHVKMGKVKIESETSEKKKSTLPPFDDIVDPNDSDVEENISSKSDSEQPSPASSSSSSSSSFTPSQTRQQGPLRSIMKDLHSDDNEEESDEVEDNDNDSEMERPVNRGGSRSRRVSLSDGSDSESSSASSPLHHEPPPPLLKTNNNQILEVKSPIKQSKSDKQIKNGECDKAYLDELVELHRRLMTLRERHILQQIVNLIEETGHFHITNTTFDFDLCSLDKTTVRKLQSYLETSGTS
* = called active by the depositor; & = joins results of further samples.

AF4-AF9 inh,smiles
-0.5,O=C(C[C@H]1CC[C@H]2[C@@H](COC[C@@H](O)CN2S(=O)(=O)c2ccccc2F)O1)NCc1ccccc1F
-1.0,CO[C@H]1CN(C)C(=O)c2ccc(NC(C)=O)cc2OC[C@H](C)N(CC2CC2)C[C@H]1C
18.4,C[C@@H]1CN([C@@H](C)CO)S(=O)(=O)c2ccc(C#CCN(C)C)cc2O[C@H]1CN(C)Cc1ccccc1F
4.3,CCN1C(c2ccc(F)cc2)=CS/C1=C(/C#N)c1nnc2n1-c1ccccc1SC2
-3.4,O=C(CSc1nc2ccccc2c(=O)n1-c1ccc(Cl)c(Cl)c1)Nc1ccc2c(c1)CCC2
-3.4,C[C@@H]1CN([C@@H](C)CO)C(=O)Cc2cc(NC(=O)C3CCCCC3)ccc2O[C@@H]1CN(C)Cc1ccc(C(=O)O)cc1
2.3,Cc1cc(/C=C(\C#N)C(=O)OCC(=O)N(C)c2c(N)n(Cc3ccccc3)c(=O)[nH]c2=O)c(C)n1CC(C)C
3.0,COc1cccc(-c2ccc3c(c2)O[C@H](CN(C)C)[C@@H](C)CN([C@@H](C)CO)S3(=O)=O)c1
-3.4,COc1c2c(c(CCC(=O)O)c3c1C=CC(C)(C)O3)OC(C)(C)C=C2
0.2,CC(C)NC(=O)N[C@@H]1CC[C@@H](CC(=O)N2CCCCC2)O[C@@H]1CO
-13.6,Cc1noc(C)c1NC(=O)N(C)C[C@@H]1Oc2ccc(NC(=O)Nc3ccc(F)cc3)cc2C(=O)N([C@H](C)CO)C[C@@H]1C
-0.1,C[C@@H]1CN([C@H](C)CO)S(=O)(=O)c2ccc(C#CC3(O)CCCC3)cc2O[C@@H]1CN(C)C(=O)Cc1cccnc1
-1.0,CO[C@@H]1CN(C)C(=O)c2ccc(NS(C)(=O)=O)cc2OC[C@H](C)N(Cc2ccccc2)C[C@H]1C
-5.8,CCCNC(=O)N1CC2(CCN(Cc3ccccn3)CC2)c2c(n(C)c3cc(OC)ccc23)[C@@H]1CO
0.5,O=C(C[C@H]1C=C[C@@H](NC(=O)c2ccncc2)[C@H](CO)O1)NCCc1ccncc1
-2.7,CO[C@@H]1CN(C)C(=O)c2cc(NC(=O)NC3CCCCC3)ccc2OC[C@@H](C)N(CC2CC2)C[C@@H]1C
0.0,CC(=O)N1[C@@H]2Cn3c(ccc(-c4ccccc4)c3=O)[C@H]1[C@@H](C(=O)NCC1CC1)[C@@H]2CO
4.9,C[C@@H]1CN([C@@H](C)CO)C(=O)Cc2cc(NS(=O)(=O)c3ccccc3)ccc2O[C@H]1CN(C)Cc1ccc(Cl)c(Cl)c1
-10.0,C[C@@H]1CCCCO[C@@H](CN(C)C(=O)c2ccccc2)[C@@H](C)CN([C@@H](C)CO)C(=O)c2cc(NC(=O)CCC(F)(F)F)ccc2O1
-0.4,Cc1cccc(-c2ccc([C@H]3[C@@H](CO)N4C(=O)CN(C(=O)c5ccc6c(c5)OCO6)C[C@@H]34)cc2)c1
-4.3,COc1ccc(NC(=O)N(C)C[C@@H]2Oc3ncc(C#CC(C)C)cc3C(=O)N([C@@H](C)CO)C[C@@H]2C)cc1
-0.5,C[C@@H]1CN([C@H](C)CO)C(=O)CCCn2cc(nn2)CO[C@@H]1CN(C)C(=O)Nc1ccc(F)cc1
7.7,C[C@@H]1CN([C@H](C)CO)C(=O)c2cc(C#CCc3ccccc3)cnc2O[C@@H]1CN(C)Cc1cccc(F)c1
6.2,C[C@@H]1CN([C@H](C)CO)S(=O)(=O)c2ccc(-c3cccnc3)cc2O[C@H]1CN(C)C(=O)c1cccc(F)c1
-2.7,C[C@@H]1CN([C@H](C)CO)C(=O)c2cc(-c3ccncc3)cnc2O[C@H]1CN(C)C(=O)C1CCOCC1
-1.9,Cc1cc2nc(C(C)(C)C)c(Cc3cccc(F)c3)n2c(C)c1Br
-1.0,CCOC(=O)[C@]12CCC=C1N(Cc1ccc(Cl)cc1Cl)C(=O)[C@H](CC(=O)NCCCOC)C2
-1.5,C[C@H]1CN([C@@H](C)CO)C(=O)c2cc(C3=CCCC3)cnc2O[C@@H]1CN(C)C(=O)Nc1ccc(F)cc1
3.1,CCC(=O)N1C[C@H](C)[C@H](OC)CN(C)C(=O)c2cc(NC(=O)c3ccccc3)ccc2OC[C@@H]1C
7.7,C[C@H](CO)N1C[C@H](C)[C@H](CN(C)Cc2ccc(Oc3ccccc3)cc2)Oc2c(NC(=O)Nc3ccc4c(c3)OCO4)cccc2C1=O
5.9,CC(=NNc1nc2ccccc2s1)c1ccncn1
-1.3,O=C(C[C@H]1CC[C@H]2[C@@H](COC[C@H](O)CN2S(=O)(=O)c2ccccc2)O1)NCCN1CCCC1
-1.1,CO[C@@H]1CC[C@@H]2CCN(C)C(=O)C[C@@H](c3ccccc3)CN(C)C(=O)c3cccc(C#N)c3OC[C@@H]1O2
8.1&2.5&8.3,COc1cccc(S(=O)(=O)N(C)C[C@@H]2Oc3cc(C#CCN(C)C)ccc3S(=O)(=O)N([C@H](C)CO)C[C@@H]2C)c1
-7.6,Cc1ccc(S(=O)(=O)N[C@H]2CC[C@@H](CC(=O)NCc3ccccc3F)O[C@@H]2CO)cc1
-1.9,Cc1ccc(S(=O)(=O)N2CC3C(=O)C[C@@H](c4ccccc4)N(S(=O)(=O)c4ccccc4Cl)C3CC2c2ccccc2)cc1 (some centres undefined)
-9.4,C[C@@H]1CCCCO[C@@H](CN(C)C(=O)C2CCCCC2)[C@@H](C)CN([C@H](C)CO)C(=O)c2cc(NS(=O)(=O)c3cccs3)ccc2O1
-2.1,CNC(C)C(=O)NC(C(=O)NC(C)C(=O)NNc1ccccc1)C(C)C (centres undefined)
0.6,O=C(c1cccnc1)N1CC(=O)N2[C@H](CO)[C@H](c3ccc(C#CCC4CCCC4)cc3)[C@H]2C1
6.0,COc1ccccc1NC(=O)N1CC[C@@H]2[C@H]1c1cc(-c3ccc(F)cc3)ccc1N(C)[C@H]2CO
-41.6,Cc1ccc(S(=O)(=O)N2C[C@H]3C(=O)C[C@@H]4C(=O)N(c5ccccc5)C(=O)[C@@H]4[C@@H]3C[C@H]2c2cccs2)cc1
0.6,CCC(=O)N(C)C[C@H]1Oc2cc(-c3ccccc3)ccc2S(=O)(=O)N([C@H](C)CO)C[C@H]1C
-1.4,C[C@H]1CN([C@@H](C)CO)C(=O)Cc2cc(NC(=O)Nc3ccccc3)ccc2O[C@@H]1CN(C)S(=O)(=O)c1cccs1
-2.7,Cc1ccc(S(=O)(=O)N2C3CCCCC3O[C@H]2CC(=O)c2cccc3ccccc23)cc1 (some centres undefined)
2.3,CCOC(=O)C1(C)CCCCCN1C(=O)/C=C/c1ccccc1 (centres undefined)

Sorted by formula weight (largest number first): part of the list above
AF4-AF9 inh,smiles
-9.4,C[C@@H]1CCCCO[C@@H](CN(C)C(=O)C2CCCCC2)[C@@H](C)CN([C@H](C)CO)C(=O)c2cc(NS(=O)(=O)c3cccs3)ccc2O1
8.1&2.5&8.3,COc1cccc(S(=O)(=O)N(C)C[C@@H]2Oc3cc(C#CCN(C)C)ccc3S(=O)(=O)N([C@H](C)CO)C[C@@H]2C)c1
-41.6,Cc1ccc(S(=O)(=O)N2C[C@H]3C(=O)C[C@@H]4C(=O)N(c5ccccc5)C(=O)[C@@H]4[C@@H]3C[C@H]2c2cccs2)cc1
-1.1,CO[C@@H]1CC[C@@H]2CCN(C)C(=O)C[C@@H](c3ccccc3)CN(C)C(=O)c3cccc(C#N)c3OC[C@@H]1O2
-1.3,O=C(C[C@H]1CC[C@H]2[C@@H](COC[C@H](O)CN2S(=O)(=O)c2ccccc2)O1)NCCN1CCCC1
6.0,COc1ccccc1NC(=O)N1CC[C@@H]2[C@H]1c1cc(-c3ccc(F)cc3)ccc1N(C)[C@H]2CO
-7.6,Cc1ccc(S(=O)(=O)N[C@H]2CC[C@@H](CC(=O)NCc3ccccc3F)O[C@@H]2CO)cc1
-2.7,Cc1ccc(S(=O)(=O)N2C3CCCCC3O[C@H]2CC(=O)c2cccc3ccccc23)cc1 (some centres undefined)
-2.1,CNC(C)C(=O)NC(C(=O)NC(C)C(=O)NNc1ccccc1)C(C)C (centres undefined)
5.9,CC(=NNc1nc2ccccc2s1)c1ccncn1

Additional entries:
AF4-AF9 inh,smiles
-4.6,CCOc1ccc(CCN2C(=S)N([C@@H](Cc3ccc(O)cc3)CN3CCC[C@@H]3CN3C(=S)NC[C@@H]3CC(C)C)C[C@@H]2Cc2ccc(O)cc2)cc1
-0.3,COc1ccccc1-c1cnc2c(c1)C(=O)N([C@@H](C)CO)C[C@@H](C)[C@@H](CN(C)C(=O)c1ccncc1)O2
0.4,C[C@@H]1CN([C@@H](C)CO)C(=O)c2cc(NC(=O)Cc3ccccc3)ccc2O[C@H]1CN(C)C(=O)Nc1ccc(F)cc1
1.9,CO[C@H]1CN(C)C(=O)c2cc(NC(C)=O)ccc2OC[C@@H](C)N(C(=O)C2CC2)C[C@H]1C
3.7,COc1ccc(NC(=O)N2CCCCN3[C@@H](CO)[C@H](c4ccc(C#Cc5ccccn5)cc4)[C@@H]3C2)cc1
0.6,C[C@H]1CN([C@@H](C)CO)C(=O)c2cccc(NC(=O)Nc3cccc4ccccc34)c2O[C@@H]1CN(C)C(=O)Nc1ccccc1
6.1,CCCNC(=O)Nc1ccc2c(c1)C(=O)N(C)C[C@@H](OC)[C@@H](C)CN(C(=O)C1CCC1)[C@H](C)CO2
0.1,COCC(=O)Nc1ccc2c(c1)C(=O)N(C)[C@H]1CC[C@@H](CC(=O)NC3Cc4ccccc4C3)O[C@H]1CO2
1.2,Cc1ccc(S(=O)(=O)N(C)C[C@H]2OCCCC[C@H](C)Oc3ccc(NC(=O)c4ccncc4)cc3C(=O)N([C@H](C)CO)C[C@@H]2C)cc1
0.9,COCC(=O)NC[C@H]1[C@@H](c2ccc(-c3ccccc3)cc2)[C@@H](CO)N1C(C)=O
4.5,Cc1ccccc1S(=O)(=O)N1CC[C@@H]2[C@@H](CO)N(C)c3ccc(-c4ccccc4)cc3[C@@H]21
-3.8,COc1ccc(-c2nc3ccc(C)cn3c2Cc2cccc(Cl)c2)cc1OC
-5.4,COc1ccccc1NC(=O)Nc1ccc2c(c1)C(=O)N(C)C[C@@H](OC)[C@@H](C)CN(C)[C@H](C)CO2
-4.7,COCc1cccc(-c2csc(C(O)c3ccccc3)n2)c1 (centres undefined)
-2.7,CCCc1cn(CC[C@H]2CC[C@@H](NC(=O)C3CCOCC3)[C@@H](CO)O2)nn1
2.9,C[C@H](CO)N1C[C@H](C)[C@@H](CN(C)S(=O)(=O)c2ccccc2F)Oc2ncc(/C=C/c3ccccc3)cc2C1=O
-4.8,Cc1noc(C)c1NC(=O)N(C)C[C@@H]1Oc2ncc(C#CC(C)C)cc2C(=O)N([C@H](C)CO)C[C@H]1C
1.4,C[C@@H]1CN([C@@H](C)CO)S(=O)(=O)c2ccc(C#CCN(C)C)cc2O[C@H]1CN(C)C(=O)CN(C)C
-3.1,CN1C(=O)c2cc(NC(=O)C3CCOCC3)ccc2OC[C@H]2O[C@@H](CC(=O)NC3CCCC3)CC[C@@H]21
7.7,COc1ccccc1C#Cc1ccc([C@H]2[C@@H](CO)N3CCCCN(C(=O)C4CCC4)C[C@H]23)cc1
4.6,CCCN(C)C[C@@H]1Oc2cc(C#CC(C)C)ccc2S(=O)(=O)N([C@@H](C)CO)C[C@@H]1C
-0.7,C[C@H]1CN([C@@H](C)CO)C(=O)c2cc(NS(=O)(=O)c3cccs3)ccc2O[C@@H]1CN(C)CC1CCCCC1
-2.8,O=C1C(=Cc2ccc(Cl)cc2)CCc2ccccc21
0.0&-1.7,C[C@@H]1CN([C@@H](C)CO)C(=O)CCCn2cc(nn2)CO[C@H]1CN(C)S(=O)(=O)c1ccc(-n2cccn2)cc1
-5.0,O=C(O)C[C@H]1C[C@@H]2c3cc(NS(=O)(=O)c4ccccc4)ccc3O[C@@H]2[C@@H](CO)O1
0.1,CCCC#Cc1ccc2c(c1)O[C@@H](CN(C)C)[C@@H](C)CN([C@@H](C)CO)S2(=O)=O
0.4,CCNC(=O)[C@H]1[C@H](CO)[C@H]2Cn3c(ccc(-c4ccccc4)c3=O)[C@H]2N1C(=O)C1CC1
-2.6,COCC#Cc1ccc2c(c1)O[C@@H](CN(C)S(=O)(=O)c1ccc(F)cc1)[C@H](C)CN([C@H](C)CO)S2(=O)=O
-4.2,CCCCOCC1CN(CCCC)S(=O)(=O)c2c(Oc3ccc(C(C)C)cc3)cccc2O1 (centres undefined)
-1.8,Cn1c(=O)c2c(nc(C3CC4C5CCC(C5)C4C3)n2C)n(C)c1=O (centres undefined)
1.7,C[C@@H]1CN([C@H](C)CO)C(=O)c2ccccc2-c2ccccc2CO[C@@H]1CN(C)S(=O)(=O)c1cccc(F)c1
-1.2,COc1cccc(C(C)(O)c2nc(-c3cc4ccccc4o3)cs2)c1 (centres undefined)
-1.5,C[C@@H]1CN([C@@H](C)CO)S(=O)(=O)c2ccc(C#Cc3cccnc3)cc2O[C@@H]1CN(C)C(=O)C1CC1
-1.2,COc1cccc(NC(=O)N2CC(=O)N3[C@H](CO)[C@@H](c4ccc(Br)cc4)[C@@H]3C2)c1
22.3,COc1ccc(CN(C)C[C@H]2OCCCC[C@H](C)Oc3ccc(NC(=O)Nc4ccc5c(c4)OCO5)cc3C(=O)N([C@@H](C)CO)C[C@@H]2C)cc1
-0.4,COCC(=O)Nc1ccc2c(c1)C(=O)N(C)C[C@H](OC)[C@H](C)CN(C(=O)CC1CC1)[C@@H](C)CO2
-4.9,CCCCn1c(N)c(N(CCOC)C(=O)CCN2C(=O)C3CC=CCC3C2=O)c(=O)[nH]c1=O (centres undefined)
2.6,COc1ccc(S(=O)(=O)Nc2ccc3c(c2)C(=O)N([C@@H](C)CO)C[C@H](C)[C@@H](CN(C)C(=O)NC(C)C)OCCCC[C@@H](C)O3)cc1
-4.0,CO[C@H]1CN(C)C(=O)c2ccc(NC(=O)C3CC3)cc2OC[C@@H](C)N(CC2CCCC2)C[C@@H]1C

3 of the entries above in order of their number in AF4-AF9 inh, smallest number first.
SMILES,AF4-AF9 inh
C[C@@H]1CN([C@@H](C)CO)C(=O)Cc2cc(NC(=O)C3CCCCC3)ccc2O[C@@H]1CN(C)Cc1ccc(C(=O)O)cc1,-3.4
C[C@H]1CN([C@@H](C)CO)C(=O)c2cccc(NC(=O)Nc3cccc4ccccc34)c2O[C@@H]1CN(C)C(=O)Nc1ccccc1,0.6
COc1cccc(-c2ccc3c(c2)O[C@H](CN(C)C)[C@@H](C)CN([C@@H](C)CO)S3(=O)=O)c1,3.0

These rows are one share of the data, so the mix of outcomes need not match the whole.
